# Screening data: PubChem, National Center for Advancing Translational Sciences (NCATS)
# Rango dissoc inh = inhibitors of RanGTP-induced Rango-importin beta complex dissociation. Potency, µM (doses to about 46.1 µM), for inactives: top-dose activity change, negative = inhibition. Biochemical FRET Rango-importin beta, RanGTP-induced dissociation. 340,000 compounds, 0.071% hits; active means falling FRET ratio curve, often poorly fitted, with flat reads before Ran was added; inconclusive means other falling curves, or compound fluorescence or quenching; inactive means flat or rising ratio curve;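 note: potency is the fitted concentration of half-maximal effect; % of control where 0% means no effect; nearly all actives have a fitted effect of over 45% in size; -100% = wells without RanGTP and RCC1; the record marks most hits as doubtful in a second field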
#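 Quantitative HTS using a FRET biosensor: 0.1 uM Rango, 0.25 uM importin beta, 0.6 uM Ran, 2 mM GTP, 0.2 uM RCC1 final, PBS with DTT, Tween-20 and BSA. Post-read taken 45 min after Ran addition.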
# miR-21 FLuc = miR-21 reporter, rising signal | 340,000 tested, under 10 active | HeLa miR-21 FLuc reporter, luciferase, 48 h | Potency, µM (highest dose often 38.3 µM), for the others: at the top dose reporter change, positive = more light; active = well fitted rising curve with a large enough effect; inconclusive = small, poorly fitted or top-dose-only effect; inactive = no such curve, though single readings can be large or run the other way;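 note: % of control where 0% means no effect; miR-21 action dims this reporter so a rising signal means less miR-21 action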
#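 Compounds were titrated across several concentrations (up to approximately 40 uM) and incubated 48 hours with HeLa miR-21-FLuc reporter cells (miR-21 target sequence downstream of FLuc, endogenous miR-21). Readout was firefly luciferase luminescence after lytic detection reagent.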
# GLA inh pH 4.5 = blocks human alpha-galactosidase A at pH 4.5 | P06280 | purified enzyme, 4-MU-alpha-Gal fluorescence, pH 4.5 | 230,000 tested, under 10 active | activity change, negative = inhibition, % at 105 µM; inconclusive = small, poorly fitted or top-dose-only inhibition, or a rising curve; inactive = flat fitted curve, though single readings scatter; no compound was filed as active;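 note: 0% = full activity with enzyme and -100% = basal without enzyme; dose as in the result columns while the protocol names 77 µM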
# Target sequence (P06280 whole entry, looked up): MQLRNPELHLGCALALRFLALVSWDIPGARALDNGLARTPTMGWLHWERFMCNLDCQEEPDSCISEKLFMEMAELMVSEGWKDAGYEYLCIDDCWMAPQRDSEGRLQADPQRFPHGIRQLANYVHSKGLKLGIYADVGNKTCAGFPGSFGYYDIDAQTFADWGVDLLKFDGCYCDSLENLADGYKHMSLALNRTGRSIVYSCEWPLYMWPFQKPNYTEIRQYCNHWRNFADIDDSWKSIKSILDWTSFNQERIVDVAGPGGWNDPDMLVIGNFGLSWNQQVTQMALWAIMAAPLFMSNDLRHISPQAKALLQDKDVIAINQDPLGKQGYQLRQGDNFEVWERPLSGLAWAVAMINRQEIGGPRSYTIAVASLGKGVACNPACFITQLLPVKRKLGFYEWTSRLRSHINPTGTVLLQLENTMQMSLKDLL
# Rango-impB inh = inhibitors of Rango-importin beta complex formation; Q14974; Rango CFP/YFP FRET sensor + importin beta, 45 min; Potency, µM (doses to about 92.2 µM), for inactives: at the top dose inhibition of complex formation; 340,000 compounds, 0.031% hits; active = rising FRET ratio curve, often small or poorly fitted; inconclusive = mostly compound fluorescence or quenching in the first reads; inactive = flat curves in all reads;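 note: potency is the fitted concentration of half-maximal effect; 0% = DMSO wells and 100% = buffer wells lacking importin beta; nearly all actives have a fitted effect of over 15% in size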
#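 FRET biosensor Rango (snurportin 1 IBB between N-terminal EYFP and C-terminal Cerulean), 50 nM in PBS/1 mM DTT/0.02% Tween-20/0.1% BSA, preincubated 5 min RT with compound; 0.125 microM importin beta added, 45 min RT, CFP/YFP FRET ratio read.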
# Active calls of the source: *; ? = inconclusive; / = not tested or not shown; & = joins results of further samples; [ ] = another dose, or the depositor's remark.
SMILES,Rango dissoc inh,miR-21 FLuc,GLA inh pH 4.5,Rango-impB inh
C=CCOc1ccc(/C(CC)=N/O)cc1OC,-9%,-26%,3,1.5%
COCC(=O)NNC(=O)Cc1ccc(Cl)cc1,-26%,0%,3,-1.9%
CCOC(=O)N/N=C(\C)c1ccc(C)o1,-6%,-8%,2,-3.1%
CSCC[C@H](NC(=O)N1CCn2c1nc1ccccc12)C(=O)NCc1ccc2c(c1)OCO2,?,-2%,/,-0.1%
CC(C)Cc1cc(C(=O)O)c2ccccc2n1,5%,/,/,-6.7%
CCCn1c(SCC(=O)N2c3ccccc3CC2C)n[nH]c1=O (centres undefined),8%,/,/,-0.7%
Cc1c(N(C)C(=O)COc2ccc3ccccc3c2)c(=O)n(-c2ccccc2)n1C,3%,-1%,/,?
COc1cc(/C=N/NC2=NC(C)(C)Cc3ccccc32)cc(OC)c1OC,-14%,-3%,-8,-0.1%
Cc1ccc(OCC(O)Cn2c(=N)n(CCN3CCOCC3)c3ccccc32)cc1 (centres undefined),-8%,3%,2,3.1%
COc1ccc(CN=C(N)N=C(N)N)cc1Cl,1%,6%,-6[21.1 µM],-1.4%
OC(CC(O)c1ccccc1)c1ccccc1 (centres undefined),2%,/,/,-0.5%
CCN(CC)C(=O)CSC(=Nc1ccccc1F)NC#N,?,-50%,-2,?
C=CCn1c(/N=C/c2ccc3c(c2)OCO3)nc2ccccc21,7%,-3%,-3,4.3%
O=C(CC1SC(N2CCCCC2)=NC1=O)Nc1ccc(C(=O)NCc2ccccc2)cc1 (centres undefined),9%,/,/,0.5%
COc1ccccc1/C=C/C=N/NC(=O)Cc1cccn1C,11%,-26%,-19,?
O=C(Cn1cc(C(F)(F)F)cc(Cl)c1=O)Nc1cccc(S(=O)(=O)N2CCCCC2)c1,21%,/,/,0.5%
O=C(Cc1ccc(Nc2nc(=S)[nH]c3ccccc23)cc1)NC1CCCCC1,/,-6%,8,/
O=C(NCCN1CCOCC1)c1cc(S(=O)(=O)Nc2ccccc2F)c(Cl)cc1Cl,-13%,3%,4,-1.8%
COc1cc(/C=C/C(=O)CC(=O)/C=C/c2ccc(O)c(OC)c2)ccc1O,?,?,2&-19,?
O=C(CN(c1ccc(F)cc1)S(=O)(=O)c1ccccc1)N1CCOCC1,0%,/,/,-8.1%
O=C(N/N=C/c1ccc[nH]1)c1ccc(O)cc1,-7%,-42%,-1,?
CN(Cc1ccccc1)C(=O)CCNC(=O)Cn1cnc2ccccc2c1=O,0%,-1%,-6,-0.6%
CCCCOc1ccc(C(O)(CCN2CCOCC2)c2ccccc2)cc1 (centres undefined),3%,-2%,/,1.0%
COc1ccc(C)cc1NC(=O)CN(c1ccc(F)cc1)S(C)(=O)=O,3%,-3%,-8,2.0%
COc1cccc(OC)c1C(=O)Nc1c(C(=O)N2CCN(C)CC2)oc2ccccc12,-6%,-2%,/,5.8%
COc1ccc(CN2CCNC(=O)C2CC(=O)NC2CCOCC2)c(F)c1 (centres undefined),-3%,-1%,/,?
c1ccc(-c2nnc(C3CC(c4ccncc4)=NO3)o2)cc1 (centres undefined),-2%,/,/,-0.5%
Cc1ccc(NS(=O)(=O)c2ccc(C(=O)NCCCN3CCCC3=O)cc2)cc1C,-5%,/,/,-1.3%
CCCCCCCCSc1nnc(-c2ccc(OC)cc2)o1,11%,-1%,-16,-0.3%
Nc1nnc(SCC(=O)Nc2ccc3nc(SCC(=O)Nc4ccccc4)sc3c2)s1,9%,-23%,6,-4.2%
C/C(=N\NC(=O)C1(C)CC1(Br)Br)c1cccc(NC(=O)C2CCC2)c1 (centres undefined),0%,14%,-12,1.1%
COc1ccc(-n2nnnc2SCC(=O)N2CCCC2)cc1OC,-9%,-4%,-8,-0.1%
Fc1ccc(NC(=S)NC2CCCCC2)c(F)c1F,4%,4%,6,3.0%
CSc1ccc(C(=O)C2CCCN(Cc3cccc4nccnc34)C2)cc1 (centres undefined),-2%,10%,-5,1.4%
C=CCn1c(SCC(=O)NC2CC2)nc2ccccc2c1=O,-2%,/,/,0.9%
CC(C)CN(CC(C)C)C(=O)CCCC(=O)N(CC(C)C)CC(C)C,25%,-1%,-6,-0.2%
COc1ccc2ccn(C)c2c1,-6%,/,/,0.1%
COc1cccc(-c2sc3cc(OC)c(OC)cc3c2-c2ccc(OCCN3CCCCC3)cc2)c1,20%,/,/,1.9%
O=C(NCC(c1cccnc1)N1CCOCC1)NC1CCCCC1 (centres undefined),16%,0%,6,2.8%
CC(=O)/C=C(\C)NCCNc1c(F)c(F)c(CO)c(F)c1F,7%,-3%,-9,-5.8%
CCn1c(SCc2nc3ccccc3[nH]2)nnc1-c1ccc(OC)cc1,-5%,4%,-5,-1.5%
CCC/C(=N\NC(=O)Cc1csc(N2CCOCC2)n1)c1ccccc1,-15%,-1%,-1,-2.1%
O=S(=O)(NC1CCN(Cc2ccccc2)CC1)c1ccc2ccccc2c1,-16%,-2%,?,-1.9%
COc1ccc(NC(=O)CCCn2nc(C)c3c(C)n(-c4ccccc4)nc3c2=O)cc1OC,-9%,-2%,/,-1.0%
COc1ccc(NC(=O)C(=O)N/N=C/c2cccnc2)c(OC)c1,-4%,-8%,4,4.2%
Cc1ccc(S(=O)(=O)/N=C2\C=C(Nc3cccc(C(=O)O)c3)C(=O)c3ccccc32)cc1,-6%,29%,/,-0.3%
O=C(Nc1nncs1)c1ccc(F)c(S(=O)(=O)N2CCCCC2)c1,9%,-1%,/,-0.7%
COCCn1nnnc1C(c1cccs1)N1CCCC(C)C1 (centres undefined),10%,-4%,9,3.8%
O=c1c(Cl)c(NCc2ccccc2Cl)cnn1C12CC3CC(CC(C3)C1)C2,-3%,-7%,-7,-1.0%
C=C1CCC2[C@](C)(CO[C@@H]3O[C@H](CO)[C@@H](O)[C@H](O)[C@H]3O)CCC[C@@]2(C)[C@@H]1CCC1=CCOC1=O (some centres undefined),-4%,/,/,7.4%
CCN(CC(=O)NCc1ccc(Cl)cc1)C(=O)c1ccc2cc(OC)ccc2c1,8%,12%,/,-2.8%
CCN(CC)S(=O)(=O)c1cccc(NC(=O)COC(=O)CCC(=O)c2ccc(F)cc2)c1,0%,1%,-2,-0.8%
CC(=O)c1cccc(OCC(O)CNCCc2ccc(Cl)cc2)c1 (centres undefined),-24%,0%,/,-3.4%
CCc1cc2c(=O)c(-c3nc4ccccc4n3C)c(C)oc2c(CN2CCN(C)CC2)c1O,/,-5%,-12,/
CC(=O)N1c2ccccc2C2(O)N=C(C)SC12 (centres undefined),-10%,-19%,13,-0.5%
NC(=O)C1CCN(C2=C(NS(=O)(=O)c3ccc(Cl)cc3)C(=O)c3ccccc3C2=O)CC1,47%,9%,3,-4.8%
COc1ccc(CNC(=O)CSc2nnc(-c3cccnc3)n2N)cc1,-1%,0%,3,1.6%
COCCNC(=O)Cn1cc(C(=O)c2cccs2)c2ccccc21,2%,/,/,0.5%
O=C(NCCc1ccccc1)C1CCCN(c2nc3ccccc3s2)C1 (centres undefined),2%,4%,/,-0.3%
Cc1ccc(S(=O)(=O)N[C@@H](CC(C)C)C(=O)NCc2ccco2)cc1,0%,-6%,-2,0.3%

# The closing 3 records of the part before come first, to join the parts.
SMILES,Rango dissoc inh,miR-21 FLuc,GLA inh pH 4.5,Rango-impB inh
COCCNC(=O)Cn1cc(C(=O)c2cccs2)c2ccccc21,2%,/,/,0.5%
O=C(NCCc1ccccc1)C1CCCN(c2nc3ccccc3s2)C1 (centres undefined),2%,4%,/,-0.3%
Cc1ccc(S(=O)(=O)N[C@@H](CC(C)C)C(=O)NCc2ccco2)cc1,0%,-6%,-2,0.3%
COc1cccc(NC(=O)CN(C)C(=O)c2c(C)nn(-c3ccccc3)c2Cl)c1,-14%,/,/,-6.7%
N#CCC(=O)NNc1c([N+](=O)[O-])cc(C(F)(F)F)cc1[N+](=O)[O-],8%,7%,0,1.5%
CN(CC(=O)Nc1cccc(F)c1)C(=O)CC1CC2CCC1C2 (centres undefined),1%,-8%,/,-3.3%
NC(=O)c1cc(S(=O)(=O)N2CCN(c3ccc([N+](=O)[O-])cc3)CC2)cs1,0%,17%,/,-4.2%
CSC(=NC1CCCCC1)NS(=O)(=O)c1ccccc1,2%&-2%,-14%,11,-2.8%&-4.5%
O=C(CN(Cc1ccco1)C(=O)c1ccc(N2CCCC2=O)cc1)Nc1ccccc1C(F)(F)F,?,/,/,0.5%
COc1ccc(OC)c(NC(=O)c2cc3c(Cl)nc4ccccc4c3s2)c1,-10%,-9%,-7,5.3%
CSc1nc(N)nc(SCC(=O)CC(=O)OC(C)C)c1C#N,-6%,-5%,-7,-5.8%
CCN1CN(CCc2ccccc2)CNC1=S,11%,-4%,-13,-1.4%
CC(C)N(C(=O)CN1C(=O)NC2(CCCCCC2)C1=O)C(C)C,5%,-5%,-1,0.4%
CC(=O)Nc1ccc(NC(=O)c2cc(S(=O)(=O)N3CCCCC3)ccc2C)cc1,-11%,/,/,1.3%
Cc1noc(C)c1S(=O)(=O)N(C)C[C@H]1Oc2c(NC(=O)C3CCCCC3)cccc2C(=O)N([C@H](C)CO)C[C@@H]1C,12%,/,/,-1.3%
CCN1C(=O)c2cccc3cccc1c23,?,-15%,-2,?
O=C(CSc1nnc(CN2CCOCC2)n1-c1ccc(Cl)cc1)Nc1cc(Cl)ccc1O,1%,6%,1,5.8%
Cc1ccc2oc(C(=O)Nc3nnc(C)s3)c(C)c2c1,-11%,-36%,2,0.0%
Cc1nnc(SCC(=O)Nc2ccc(Cl)cn2)s1,15%,-6%,-13,-2.2%
O=C(CN1CCCC1)Nc1ccc(Br)cc1,12%,-13%,6,?
S=C1NC(c2ccccc2)=CC(c2ccccc2)N1 (centres undefined),0%,-4%,3,?
CC(C)CNS(=O)(=O)c1ccc(CCC(=O)NC2CCCCC2)cc1,4%,/,/,0.4%
Cc1ccc(NC(=O)C(c2ccc(Cl)cc2Cl)N2CCCC2)cc1 (centres undefined),11%,-6%,-6,6.6%
Cc1ccc(/C(O)=C2/C(=O)C(=O)N(CCN3CCOCC3)C2c2cccs2)cc1 (centres undefined),-9%,-10%,-4,-1.6%
O=C(N/N=C/c1cccc([N+](=O)[O-])c1)c1cc2ccccc2o1,14%,-9%,-6,0.8%
Cc1ccc(C)c(NC(=O)C2CC(Cl)=CCC2C(=O)O)c1 (centres undefined),-5%,-5%,4,0.2%
CCOC(=O)N1CCC(N2Cc3cccc(C(=O)Nc4ccccc4OC)c3C2=O)CC1,21%,6%,/,-0.5%

# Three compounds drawn at random from those above:
SMILES,Rango dissoc inh,miR-21 FLuc,GLA inh pH 4.5,Rango-impB inh
Cc1nnc(SCC(=O)Nc2ccc(Cl)cn2)s1,15%,-6%,-13,-2.2%
O=C(CSc1nnc(CN2CCOCC2)n1-c1ccc(Cl)cc1)Nc1cc(Cl)ccc1O,1%,6%,1,5.8%
Cc1ccc2oc(C(=O)Nc3nnc(C)s3)c(C)c2c1,-11%,-36%,2,0.0%

# Other records.
SMILES,Rango dissoc inh,miR-21 FLuc,GLA inh pH 4.5,Rango-impB inh
Cc1cc(NC(=O)CSc2nnc(-c3ccc(O)cc3)o2)no1,-11%,-29%,2,-1.1%
COc1ccc(C(CNC(=O)CCC(=O)c2ccc(C)s2)N2CCOCC2)cc1 (centres undefined),22%,/,/,-2.7%
O=C(CN1CCC(n2cnc3cc(F)ccc32)CC1)Nc1ccccc1Br,2%,6%,-10,0.8%
COc1ccc(Cl)cc1NC(=O)c1cccc(NC(=O)CCC(=O)O)c1,18%,-5%,-3,11%
CC(=O)c1cnc2cc(-c3ccc(C)cc3)nn2c1C,10%,-68%,-3,-0.3%
N#CC1=C2SCC(O)(c3ccccc3)N2C(=O)CC1c1cccs1 (centres undefined),0%,8%,6,7.5%
COCCSc1nnc(NC(=O)COc2ccc3c(c2)OCO3)s1,12%,-2%,/,0.0%
Cc1cc(C(=O)OCC(=O)N2CCOCC2)c2ccccc2n1,-14%,-1%,-3,-2.3%
CCn1c(=O)n(CC(=O)N2CC(C)CC(C)C2)c(=O)c2ccccc21 (centres undefined),1%,-5%,6,4.4%

# This is a subset; rates above refer to the full screens.
